From PubChem
RGS16-Gao HTS: RGS16-Galphao interaction regulator (human); binding response (% of control), % at 10 µM; 220,000 compounds, 0.38% hits; O15492+P09471; bead-based flow cytometry RGS16-Galphao binding, fluorescence; actives lie on both sides;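 active = below 25% or above 175%, edge rows of some plates excepted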;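 note: Galphao activated by GDP with aluminum fluoride before binding; 100% = wells without compound and 0% = beads without RGS; some results beyond the cut were filed as inactive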
Target sequence (O15492 whole entry, looked up): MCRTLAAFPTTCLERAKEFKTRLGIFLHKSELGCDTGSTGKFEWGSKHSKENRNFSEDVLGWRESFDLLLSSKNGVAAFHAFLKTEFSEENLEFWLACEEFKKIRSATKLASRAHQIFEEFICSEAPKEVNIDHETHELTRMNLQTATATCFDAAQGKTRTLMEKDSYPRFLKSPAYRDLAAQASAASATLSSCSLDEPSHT
Target sequence (P09471 whole entry, looked up): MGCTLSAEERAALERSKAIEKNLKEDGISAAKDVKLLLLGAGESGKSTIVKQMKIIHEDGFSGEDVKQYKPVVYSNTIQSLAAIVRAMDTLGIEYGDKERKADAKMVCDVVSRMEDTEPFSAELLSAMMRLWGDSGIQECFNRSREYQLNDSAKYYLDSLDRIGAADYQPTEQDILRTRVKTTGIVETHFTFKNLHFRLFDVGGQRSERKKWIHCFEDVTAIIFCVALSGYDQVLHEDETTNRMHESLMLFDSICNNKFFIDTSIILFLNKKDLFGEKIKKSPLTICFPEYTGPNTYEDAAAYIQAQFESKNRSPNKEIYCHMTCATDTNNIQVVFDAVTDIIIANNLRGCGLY
GALR2 agonist: GALR2 (human) receptor agonism; O43603; GALR2-expressing cells, agonist activation read-out; activation, %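 (tested at 5 µM)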; 140,000 compounds, 0.48% hits; AID 803;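 active = above mean plus 3 SD of all compounds, about 5% in these data, not always enough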;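 note: 0% = vehicle buffer wells and 100% = reference agonist at full effect; tested in CHO reporter cells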
Target sequence (O43603 whole entry, looked up): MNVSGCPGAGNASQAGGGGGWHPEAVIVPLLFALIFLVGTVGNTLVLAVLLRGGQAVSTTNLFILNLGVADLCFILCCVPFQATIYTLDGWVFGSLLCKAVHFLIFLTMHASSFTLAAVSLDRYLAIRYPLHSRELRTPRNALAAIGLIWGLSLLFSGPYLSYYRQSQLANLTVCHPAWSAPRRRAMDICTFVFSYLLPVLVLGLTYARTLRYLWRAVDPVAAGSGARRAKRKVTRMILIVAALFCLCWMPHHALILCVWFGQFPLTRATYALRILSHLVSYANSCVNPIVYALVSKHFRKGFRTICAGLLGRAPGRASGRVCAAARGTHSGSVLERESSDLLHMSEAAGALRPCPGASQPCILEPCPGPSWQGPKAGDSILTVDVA
Insulin prom inh: TRM-6 insulin promoter activity inhibition; TRM-6 cells (human fetal islet line), insulin promoter-eGFP reporter, imaging; reporter expression induced with tamoxifen; inhibition, % at 2 µM; 130,000 compounds, 0.9% hits;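 active = inhibition above the mean plus 3 SD, with well images judged a real hit on visual review, cut at about 60% in these data, passing the limit was not always enough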
PKD1 inh: PKD1 (human) kinase inhibition; Q15139; PKD1 kinase fluorescence polarization assay; inhibition, %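 (about 10 µM by stock and volumes)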; 200,000 compounds, 0.056% hits; AID 797;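 active = inhibition of 50% or more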;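 note: controls were vehicle for no effect and a reference inhibitor for full effect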
HSV replic up: increases HSV replication in cells; HSV replication augmentation in cells, fold increase; maximum fold increase; AID 1956; 220,000 compounds, 0.005% hits;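 active = peak rise of 1.5-fold or more in the series; tested in PC3 cells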;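 note: first round at 10 µM; read as green reporter fluorescence; hits show the peak of a series up to 25 µM; 1 = signal of infected wells without compound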
Insulin prom inh cell count: second read-out of Insulin prom inh, no call of its own (marks repeat the call); normalized cell count, %; measured here: cell count, toxicity; reference of the scale not given here;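 cells exposed to compound for 48 h; stained nuclei by imaging scaled within each plate; lower means fewer cells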
HSV replic up primary fold: further read-out of HSV replic up, marked with its call; fold increase; compound at 10 µM; measured here: primary screen fold increase 10 uM; tested in PC3 cells;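 GFP signal in the first replicate; 1 = infected wells without compound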
* hit, by the source's call.

`O=C(c1ccco1)N1CCN(C(=O)c2cc3c(s2)-c2ccccc2OC3)CC1` gave RGS16-Gao HTS 103, GALR2 agonist -0.7, PKD1 inh 0, HSV replic up inactive and HSV replic up primary fold 0.85.
For O=C(CCn1c(=O)oc2ccccc21)NCCN1CCOCC1 the results were RGS16-Gao HTS 100, HSV replic up inactive and HSV replic up primary fold 0.82.
`O=C(Nc1ccccc1C(=O)N/N=C/c1ccco1)c1ccccc1` gave RGS16-Gao HTS 106, GALR2 agonist -1.0, Insulin prom inh 41, PKD1 inh 2, HSV replic up inactive, Insulin prom inh cell count 90 and HSV replic up primary fold 0.93.
COCC1CCN(Cc2cn[nH]c2-c2ccc(OC)cc2F)C1 (stereo unspecified) was read as RGS16-Gao HTS 104, Insulin prom inh 22, PKD1 inh -11, HSV replic up inactive, Insulin prom inh cell count 98 and HSV replic up primary fold 0.96.
`COC(=O)c1sc(SC)c(S(=O)(=O)C(C)C)c1N/N=C(\C#N)C(=O)c1ccccc1` gave RGS16-Gao HTS 101, HSV replic up inactive and HSV replic up primary fold 1.
Screening O=C(Nc1ccnc(-c2ccncc2)n1)c1ccc(F)cc1 returned RGS16-Gao HTS 98, Insulin prom inh -340, PKD1 inh 1, HSV replic up inactive, Insulin prom inh cell count 73 and HSV replic up primary fold 0.99.
For CCOC(=O)C1CCCN(c2cc(=O)n(C3CCCCC3)c(=O)[nH]2)C1 (stereo unspecified) the results were RGS16-Gao HTS 104, Insulin prom inh -124, PKD1 inh -7, HSV replic up inactive, Insulin prom inh cell count 82 and HSV replic up primary fold 0.98.
For Cc1cccc(N2CCN(C(=O)Cn3c(=O)[nH]c4ccsc4c3=O)CC2C)c1 (stereo unspecified) the results were RGS16-Gao HTS 104, GALR2 agonist -2.0, Insulin prom inh -14, PKD1 inh 2, HSV replic up inactive, Insulin prom inh cell count 90 and HSV replic up primary fold 1.2.
`COc1ccc(S(=O)(=O)Nc2cc(C)ccn2)cc1` gave RGS16-Gao HTS 104, GALR2 agonist -2.2, Insulin prom inh 7, PKD1 inh -7, HSV replic up inactive, Insulin prom inh cell count 149 and HSV replic up primary fold 0.97.
Screening O=C(NC(N1CCOCC1)C(Cl)(Cl)Cl)c1ccccc1Cl (stereo unspecified) returned RGS16-Gao HTS 97, PKD1 inh -5, HSV replic up inactive and HSV replic up primary fold 0.97.
CCN(CC)CCCNc1nc2ccccc2[nH]1 was read as RGS16-Gao HTS 105, GALR2 agonist -2.6, PKD1 inh 14, HSV replic up inactive and HSV replic up primary fold 0.92.
Screening O=C(CSc1nnnn1-c1ccc2c(c1)OCCO2)c1cccc2c1OCCO2 returned RGS16-Gao HTS 84, GALR2 agonist -2.4, Insulin prom inh -33, PKD1 inh 7, HSV replic up inactive, Insulin prom inh cell count 128 and HSV replic up primary fold 0.99.
COC(=O)CSc1nnc(CNC(=O)c2ccco2)n1-c1ccc(F)cc1 was read as RGS16-Gao HTS 93, GALR2 agonist -2.8, PKD1 inh 7, HSV replic up inactive and HSV replic up primary fold 0.88.
Screening CC(=O)c1c(C)[nH]c(C(=O)OCc2nnc(-c3ccccc3)o2)c1C returned RGS16-Gao HTS 94, GALR2 agonist -0.6, Insulin prom inh -3, PKD1 inh -3, HSV replic up inactive, Insulin prom inh cell count 62 and HSV replic up primary fold 1.
`CC1COc2ccccc2N1S(=O)(=O)c1ccc(Cl)cc1` (stereo unspecified) gave RGS16-Gao HTS 112, Insulin prom inh 9, PKD1 inh -10, HSV replic up inactive, Insulin prom inh cell count 186 and HSV replic up primary fold 0.99.
CCOC(=O)c1ccc(NC(=O)c2nccnc2C(=O)O)cc1 was read as RGS16-Gao HTS 70, GALR2 agonist -1.3, PKD1 inh 7, HSV replic up inactive and HSV replic up primary fold 0.88.
CC(C)Nc1nnc(SC(C)C(=O)Nc2ccc(Cl)cn2)s1 (stereo unspecified) was read as RGS16-Gao HTS 91, Insulin prom inh 18, PKD1 inh -5, HSV replic up inactive, Insulin prom inh cell count 105 and HSV replic up primary fold 1.
For Cc1cc(C(=O)COC(=O)[C@H](C)NC(=O)c2ccco2)c(C)n1Cc1ccco1 the results were RGS16-Gao HTS 101, PKD1 inh -1, HSV replic up inactive and HSV replic up primary fold 1.
`COc1cc(OC)cc(-c2cc3nc(C)c(CCC(=O)Nc4nc(C)cs4)c(C)n3n2)c1` gave RGS16-Gao HTS 103, GALR2 agonist -0.1, Insulin prom inh 25, PKD1 inh -2 and Insulin prom inh cell count 130.
CCCCCNC(=O)CCc1ccccc1 was read as RGS16-Gao HTS 111, GALR2 agonist -1.2, Insulin prom inh 23, PKD1 inh -4, HSV replic up inactive, Insulin prom inh cell count 88 and HSV replic up primary fold 1.
`Clc1ccccc1-c1ncc2ccccn12` gave RGS16-Gao HTS 102, Insulin prom inh -60, PKD1 inh -7, HSV replic up inactive, Insulin prom inh cell count 121 and HSV replic up primary fold 0.97.
`NC(=O)Cn1c(=O)n(CCCC(=O)NC2CCN(Cc3ccccc3)CC2)c(=O)c2ccccc21` gave RGS16-Gao HTS 94, GALR2 agonist -0.1, Insulin prom inh 43, PKD1 inh 2, HSV replic up inactive, Insulin prom inh cell count 201 and HSV replic up primary fold 1.1.
CCn1nnnc1SCC(=O)Nc1ccc(OC)cc1 was read as RGS16-Gao HTS 96, GALR2 agonist -2.8, Insulin prom inh -462, PKD1 inh 7, HSV replic up inactive, Insulin prom inh cell count 32 and HSV replic up primary fold 0.83.
`COc1ccc(C=O)cc1COc1ccc(Cl)cc1[N+](=O)[O-]` gave RGS16-Gao HTS 102, GALR2 agonist -1.5, Insulin prom inh 7, PKD1 inh -1, HSV replic up inactive, Insulin prom inh cell count 53 and HSV replic up primary fold 1.1.
Screening NS(=O)(=O)c1ccc(CCNC(=O)c2ccc(Cn3c(=O)[nH]c4ccccc4c3=O)cc2)cc1 returned RGS16-Gao HTS 104, PKD1 inh -10, HSV replic up inactive and HSV replic up primary fold 0.77.
NC(=O)C[C@@H]1NC(=O)c2cc([N+](=O)[O-])cc(F)c2NCCCC[C@@H](C(N)=O)NC(=O)[C@H](CO)NC1=O was read as RGS16-Gao HTS 20, GALR2 agonist -0.9, Insulin prom inh -20, PKD1 inh -3, HSV replic up inactive, Insulin prom inh cell count 132 and HSV replic up primary fold 1.1.
`Cc1ccc(S(=O)(=O)N2CCCCC2)cc1C(=O)Nc1ccc(S(=O)(=O)Nc2ncccn2)cc1` gave RGS16-Gao HTS 102, HSV replic up inactive and HSV replic up primary fold 0.97.
For CCOc1ccc(NC(=O)C2CCC(CNc3c(N4CCC(C)CC4)c(=O)c3=O)CC2)cc1 (stereo unspecified) the results were RGS16-Gao HTS 102, HSV replic up inactive and HSV replic up primary fold 0.87.
Screening COCCOC(=O)c1[nH]c2c(c1C)C(=O)CC(c1ccccc1)C2 (stereo unspecified) returned RGS16-Gao HTS 101, GALR2 agonist -1.9, Insulin prom inh -87, PKD1 inh -5 and Insulin prom inh cell count 6.
`O=C(CC12CC3CC(CC(C3)C1)C2)Nc1cccc2ncccc12` gave RGS16-Gao HTS 101, GALR2 agonist 23*, PKD1 inh -6, HSV replic up inactive and HSV replic up primary fold 1.1.
CCOC(=O)CSc1nnc(Cc2ccccc2)n1-c1cccc(Cl)c1 was read as RGS16-Gao HTS 105, GALR2 agonist -0.8, Insulin prom inh 31, PKD1 inh -11, HSV replic up inactive, Insulin prom inh cell count 142 and HSV replic up primary fold 0.74.
Screening CCNC(=S)Nc1ccc2ncoc2c1 returned RGS16-Gao HTS 97, Insulin prom inh 39, PKD1 inh -1, HSV replic up inactive, Insulin prom inh cell count 110 and HSV replic up primary fold 1.1.
For CC(=O)c1c(C)n(-c2ccccc2)c2ccc(OCC(N)=O)cc12 the results were RGS16-Gao HTS 101, PKD1 inh -5, HSV replic up inactive and HSV replic up primary fold 0.98.
For O=C1CCC(=O)N1CNc1ccc(Oc2ccccc2)cc1 the results were RGS16-Gao HTS 91, GALR2 agonist -2.9, Insulin prom inh -219, PKD1 inh -11, HSV replic up inactive, Insulin prom inh cell count 121 and HSV replic up primary fold 0.74.
O=C(COc1ccc2ccccc2c1)Nc1nnc(-c2ccco2)s1 was read as RGS16-Gao HTS 104, HSV replic up inactive and HSV replic up primary fold 0.98.
Brc1ccc(CSc2ccc(-c3ccco3)nn2)cc1 was read as RGS16-Gao HTS 96, Insulin prom inh 27, PKD1 inh 6, HSV replic up inactive, Insulin prom inh cell count 112 and HSV replic up primary fold 0.89.

Molecules from the list above containing fluorine (4):
COCC1CCN(Cc2cn[nH]c2-c2ccc(OC)cc2F)C1 (stereo unspecified) was read as RGS16-Gao HTS 104, Insulin prom inh 22, PKD1 inh -11, HSV replic up inactive, Insulin prom inh cell count 98 and HSV replic up primary fold 0.96.
Screening O=C(Nc1ccnc(-c2ccncc2)n1)c1ccc(F)cc1 returned RGS16-Gao HTS 98, Insulin prom inh -340, PKD1 inh 1, HSV replic up inactive, Insulin prom inh cell count 73 and HSV replic up primary fold 0.99.
COC(=O)CSc1nnc(CNC(=O)c2ccco2)n1-c1ccc(F)cc1 was read as RGS16-Gao HTS 93, GALR2 agonist -2.8, PKD1 inh 7, HSV replic up inactive and HSV replic up primary fold 0.88.
NC(=O)C[C@@H]1NC(=O)c2cc([N+](=O)[O-])cc(F)c2NCCCC[C@@H](C(N)=O)NC(=O)[C@H](CO)NC1=O was read as RGS16-Gao HTS 20, GALR2 agonist -0.9, Insulin prom inh -20, PKD1 inh -3, HSV replic up inactive, Insulin prom inh cell count 132 and HSV replic up primary fold 1.1.

The listing continues:
Screening COc1cc(OC)cc(-c2nc3nc(C)c(CCC(=O)NCC(OC)OC)c(C)n3n2)c1 returned RGS16-Gao HTS 98, Insulin prom inh 21, PKD1 inh -4, HSV replic up inactive, Insulin prom inh cell count 138 and HSV replic up primary fold 0.9.
`CCOC(=O)Nc1ccc(Oc2ccccc2)cc1` gave RGS16-Gao HTS 104, GALR2 agonist -2.1, Insulin prom inh 55, PKD1 inh -5, HSV replic up inactive, Insulin prom inh cell count 156 and HSV replic up primary fold 0.96.
For COc1ccc(Nc2nc3c(C)cccn3c(=O)c2C=NCc2ccccc2)cc1 the results were RGS16-Gao HTS 100, Insulin prom inh 0, PKD1 inh -1, HSV replic up inactive, Insulin prom inh cell count 108 and HSV replic up primary fold 0.79.
Screening CC(=O)c1ccc(OCc2cc([N+](=O)[O-])cc3c2OCOC3)cc1 returned RGS16-Gao HTS 103, Insulin prom inh 26, PKD1 inh 4, HSV replic up inactive, Insulin prom inh cell count 79 and HSV replic up primary fold 1.1.
`O=C(Cc1n[nH]c(=O)c2ccccc12)NC(c1ccccc1)c1ccccc1` gave RGS16-Gao HTS 104, HSV replic up inactive and HSV replic up primary fold 1.1.
Cc1cc(C)c2oc(=O)cc(CN3CCOCC3)c2c1 was read as RGS16-Gao HTS 100, GALR2 agonist -0.6, Insulin prom inh -34, PKD1 inh -13, HSV replic up inactive, Insulin prom inh cell count 70 and HSV replic up primary fold 0.97.
COc1cc2[nH]c3c(N4CCN(c5ccc(Cl)cc5)CC4)ncnc3c2cc1OC was read as RGS16-Gao HTS 105, GALR2 agonist -1.2, PKD1 inh -11, HSV replic up inactive and HSV replic up primary fold 0.75.
For COC(=O)Cc1c(C)c2ccc(O)c(CN3CCCC(C)C3)c2oc1=O (stereo unspecified) the results were RGS16-Gao HTS 113, GALR2 agonist 1.9, Insulin prom inh -16, PKD1 inh 5, HSV replic up inactive, Insulin prom inh cell count 59 and HSV replic up primary fold 0.92.
For Cc1cccc(C)c1NC(=O)COC(=O)c1nonc1N the results were RGS16-Gao HTS 91, GALR2 agonist 0.2, Insulin prom inh 7, PKD1 inh 0, HSV replic up inactive, Insulin prom inh cell count 109 and HSV replic up primary fold 0.86.
Cc1ccc2c(C)nc(NC3=NCN(C(C)C)CN3)nc2c1 was read as GALR2 agonist -0.8, Insulin prom inh -37, PKD1 inh -15 and Insulin prom inh cell count 168.
For CCOCCCNCC(=O)Nc1ccc(OC(F)(F)F)cc1 the results were RGS16-Gao HTS 99, GALR2 agonist -0.5, Insulin prom inh 3, PKD1 inh -1, HSV replic up inactive, Insulin prom inh cell count 172 and HSV replic up primary fold 0.95.
Screening CCOC(=O)c1cccc(NC(=O)N[C@@H](C)C(=O)OC)c1 returned RGS16-Gao HTS 96, GALR2 agonist -1.6, PKD1 inh 11, HSV replic up inactive and HSV replic up primary fold 1.
Screening COc1cccc2cc(-c3nc(-c4cccs4)cs3)c(=O)oc12 returned RGS16-Gao HTS 99, GALR2 agonist -0.6, Insulin prom inh 45, PKD1 inh -6, HSV replic up inactive, Insulin prom inh cell count 66 and HSV replic up primary fold 1.2.
COc1ccc2c(c1)c(C(=O)CN1CCC3(CC1)OCCO3)c(C)n2C was read as RGS16-Gao HTS 101, GALR2 agonist -2.8, PKD1 inh 6, HSV replic up inactive and HSV replic up primary fold 1.2.
`Nc1ccccc1SCc1cn2ccccc2n1` gave RGS16-Gao HTS 107, GALR2 agonist -0.9, Insulin prom inh 7, PKD1 inh 1, HSV replic up inactive, Insulin prom inh cell count 105 and HSV replic up primary fold 0.98.
